Source: PubChem BioAssay (National Center for Advancing Translational Sciences (NCATS))
D2 PAM = human D2 receptor positive allosteric modulation; P14416; DiscoveRx D2 beta-arrestin cells, luminescence, 90 min; 100% = 57 uM dopamine signal; potentiation, % (concentration not given with the values); AID 624464; 360,000 tested, 0.23% active; active = potentiation of 50% or more; inconclusive = 30% to 50%; inactive = 30% or less;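 note: compound concentration not given in the record; tested on top of an EC20 dose of dopamine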
Target sequence (P14416 whole entry, looked up): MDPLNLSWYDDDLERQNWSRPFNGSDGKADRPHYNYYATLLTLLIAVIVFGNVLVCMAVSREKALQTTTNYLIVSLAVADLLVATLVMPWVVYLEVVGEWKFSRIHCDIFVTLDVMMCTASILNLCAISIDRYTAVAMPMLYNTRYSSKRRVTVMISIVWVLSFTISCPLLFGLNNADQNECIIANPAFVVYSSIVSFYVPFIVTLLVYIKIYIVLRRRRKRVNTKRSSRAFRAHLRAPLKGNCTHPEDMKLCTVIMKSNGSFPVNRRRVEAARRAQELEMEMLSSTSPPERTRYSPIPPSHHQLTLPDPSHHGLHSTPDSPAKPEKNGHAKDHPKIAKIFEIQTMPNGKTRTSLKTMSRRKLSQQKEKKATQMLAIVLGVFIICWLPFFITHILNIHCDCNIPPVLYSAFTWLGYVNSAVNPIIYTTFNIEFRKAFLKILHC
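PathHunter D2 cells, attached overnight at 37 deg C, received compound in DMSO plus dopamine at EC20 (50 nM final) for 90 min at 37 deg C. Beta-arrestin recruitment was read as luminescence after 1 h with detection reagent at ambient temperature.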
D2 ag = human D2 receptor agonism in beta-arrestin assay | activation, % (no concentration beside the values) | DiscoveRx PathHunter D2 beta-arrestin, luminescence, 90 min; 100% = 57 uM dopamine signal | 360,000 tested, 0.084% active | P14416; in the data active = activation above about 40%; inconclusive = about 15% to 40%; inactive = below about 15%; note: compound concentration not given in the record; the text of the record calls up to 30% inactive
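DiscoveRx PathHunter D2 beta-arrestin cells (2,100/well) attached overnight, then compound-stimulated 90 min at 37 C in HBSS/10 mM HEPES/0.1% Tween-20 buffer; beta-galactosidase complementation read by luminescence after 1 h at ambient temperature. Dopamine 57 uM final (EC100) as control.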
PINK1 expr mod = PINK1 expression modulation; PINK1 immunofluorescence, high-content cytometry, 24 h; Potency, µM (titrated, usually from 76.6 µM), for inactives: at the top dose activation (PINK1 increase), most hits filed as activators; 410,000 tested, 0.2% active; AID 624263; active = well fitted activation curve with a large enough effect; inconclusive = small, poorly fitted or top-dose-only effect; inactive = flat fitted curve, though single readings scatter; cell line not stated here;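 note: potency is the fitted concentration of half-maximal effect; % of control where 0% means no effect; nearly all actives have a fitted effect of over 65% in size; a mitochondrial uncoupler was the plate control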
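Compound titrations (5 concentrations, 24 h) on a stable cell line; DMSO and CCCP controls. Endpoint: fixed-cell PINK1 immunofluorescence with mitochondrial, cell and nuclear markers, scanned by microplate cytometer.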
Six1-Eya2 inh = blocks human Six1 binding to Eya2 | AlphaScreen GST-Six1/His-Eya2 binding, biochemical; active compounds read low; control for the full effect not named in the record | activity change, % (test concentration not listed) | 360,000 tested, 0.56% active; in the data active = activity change below about -65%; inconclusive = about -30% to -65%; inactive = above about -30%; note: % is set by controls: 0 for no effect and ±100 for the full control effect
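Homogeneous AlphaScreen proximity assay pairing GST-Six1 with His-tagged Eya2 (added as 5X mix: 250 nM and 500 nM) in 50 mM Tris pH 8.0, 300 mM NaCl, 1 mM TCEP. Glutathione donor and nickel acceptor beads; 1 h, 37 °C, dark.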
CtBP-E1A blk = blocks the CtBP interaction with E1A; AlphaScreen GST-E1A/His-CtBP binding, 1536-well; active compounds read low; control for the full effect not named in the record; activity change, % (concentration not given with the values); 340,000 tested, 0.49% active; AID 651724; in the data active means activity change below about -65%; inconclusive means about -30% to -65%; inactive means above about -30%; note: % is set by controls: 0 for no effect and ±100 for the full control effect
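Steps: dispense buffer (Tris pH 8.0, NaCl 300 mM, TCEP 1 mM, BSA, Tween 20); add 5X protein mix (GST-E1A, His-CtBP, 125 nM each); pin 23 nL compound; 2 h at 37 °C, dark; add 5X beads (50 ug/mL); 1 h; read.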
TRPML1 ag = human mucolipin-1 channel agonism; Q9GZU1; TRPML1-expressing cells, Ca2+ dye fluorescence, FDSS; host cell line not named in the record; reference of the full effect not given here; activation, % (concentration not given with the values); 410,000 tested, 0.12% active; AID 624414; in the data active = activation above about 50%; inconclusive = about 30% to 50%; inactive = below about 30%; note: 0% is about no effect; the text of the record puts the active cut at 80%
Target sequence (Q9GZU1 whole entry, looked up): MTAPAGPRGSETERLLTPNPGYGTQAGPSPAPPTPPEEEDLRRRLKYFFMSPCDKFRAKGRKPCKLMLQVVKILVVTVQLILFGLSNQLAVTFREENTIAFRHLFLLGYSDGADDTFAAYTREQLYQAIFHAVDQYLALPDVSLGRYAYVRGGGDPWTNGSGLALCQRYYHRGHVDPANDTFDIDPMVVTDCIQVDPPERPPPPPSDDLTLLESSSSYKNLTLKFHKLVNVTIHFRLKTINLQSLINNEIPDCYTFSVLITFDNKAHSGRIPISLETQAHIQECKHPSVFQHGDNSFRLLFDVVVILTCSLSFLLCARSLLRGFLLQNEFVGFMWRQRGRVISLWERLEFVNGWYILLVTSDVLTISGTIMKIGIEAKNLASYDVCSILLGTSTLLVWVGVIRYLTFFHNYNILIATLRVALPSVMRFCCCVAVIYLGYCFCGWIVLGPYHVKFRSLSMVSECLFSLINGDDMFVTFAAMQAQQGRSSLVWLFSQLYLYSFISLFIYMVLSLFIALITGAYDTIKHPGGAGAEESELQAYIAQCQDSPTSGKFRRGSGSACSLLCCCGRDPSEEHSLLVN
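In this qHTS format, compounds were pin-transferred onto Ca8-dye-loaded TRPML1-DL cells induced with Tet overnight, and intracellular Ca2+ fluorescence was recorded kinetically for 110 s after a 10 s baseline. A subsequent 4uM final 54-4 (EC80) addition followed by a second 110 s read served as the antagonist phase.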
* hit, by the source's call; ? = inconclusive; / = no result given; & = joins results of further samples; [ ] = remark or other dose.

Molecule,D2 PAM,D2 ag,PINK1 expr mod,Six1-Eya2 inh,CtBP-E1A blk,TRPML1 ag
CC(OC(=O)c1ccc([N+](=O)[O-])s1)C(=O)Nc1ncc(Cl)cc1Cl (configuration not stated),?,14,2.4%,7,6,2.5
CCOC(=O)c1ccc(NC(=O)CC2SC(=NC)N(C)C2=O)cc1 (configuration not stated),-10,1.1,-2.0%,10,8,-0.3
O=C(O)CSc1nc2ccccc2o1,-6,-0.7,-1.0%,3,-2,0.2
O=C(NCc1ccco1)C1CC(c2ccc(C(F)(F)F)cc2)=NO1 (configuration not stated),3,-0.3,15%,2,-5,1.3
Cc1ccc(NC(=S)NCCC(c2ccccc2)c2ccccc2)c(C)c1,-12,-1.2,3.6%,-16,-10,-0.7
COc1ccc(C(=O)CCNc2ccc3c(c2)OCCO3)cc1,-6,-16,2.8%,-26,-16,2.0
COc1ccc(N(C(=O)CNC(=O)c2cccs2)C(C(=O)NC2CCCC2)c2ccncc2)cc1 (configuration not stated),-11,-3.2,-0.8%,6,9,0.6
COc1ccc(OCC(=O)NC2CCCN(Cc3ccc(Cl)cc3)C2)cc1 (configuration not stated),-26,3.7,0.4%,8,-10,2.1
COc1cccc(NC(=O)CN(C)S(=O)(=O)c2ccc3c(c2)CCC(=O)N3)c1,-2,-2.9,-0.4%,2,1,-0.6
Cc1cc(Cl)c2ccc3ccccc3c2n1,-4,-0.9,2.2%,15,12,0.8
O=C(NCc1ccc(Cl)cc1)C1CCN(S(=O)(=O)c2ccc(N3CCCC3=O)cc2)CC1,-8,2.1,10%,-1,2,-0.4
CCCOc1cccc(-c2cc(C(=O)N/N=C/c3cccnc3)c3ccccc3n2)c1,-6,1.2,2.3%,7,-12,0.6
Cc1cc(/C=C(/C#N)c2cccc(Cl)c2)c(C)n1C,6,-1.2,1.6%,4,-3,0.2
Cc1cc(C)n(CCN(C)c2nc3nonc3nc2NC2CC2)n1,0,-2.9,0.1%,6,9,0.6
O=c1c2ccccc2nc(-c2ccccc2)n1Cc1ccccc1,4,-7.5,-0.9%,10,-2,0.2
COc1ccc(NC(=O)CN2CCN(S(=O)(=O)c3ccc(Cl)cc3)CC2)cc1,5,0.7,3.0%[38.3 µM],0,5,0.2
Cc1cc(=O)oc(C)c1C(=O)NCCCN1CCN(c2ccc(F)cc2)CC1,-20,-3.3,3.2%[38.3 µM],0,43,0.3
Cc1nn(-c2ccccc2)c2sc(C(=O)NCCN3CCOCC3)cc12,-34,-1.2,-0.2%,?,?,3.1
COCCn1c(=O)[nH]c2cc(C(=O)N3CCN(c4ccccc4)CC3)ccc2c1=O,-6,-2.9,2.0%&0.1%,7,22,-0.8&-0.1
CCCc1ccc(OCC(=O)NNC(=S)NC(=O)c2ccco2)cc1,-20,-2.5,-3.4%,-16,0,4.1
C=CCN1C(=O)[C@H]2CCC=C[C@H]2[C@@H]1c1cccc(C)c1,/,2.9,-0.2%,-1,1,-0.6
CCOC(=O)CCCCC(=O)c1[nH]c(=O)[nH]c1CSc1nc(C)cc(C)n1,-15,-1.9,-1.0%,-6,-2,-0.6
CC(=O)Nc1ccc(/C(C)=N/NS(=O)(=O)c2ccc(C)cc2)cc1,9,-0.7,-2.0%,2,12,-0.8
CCCCCCCn1c(=N)n(CC(O)c2ccco2)c2ccccc21 (configuration not stated),-2,-6.6,-0.8%,-6,3,0.0
COc1ccccc1-n1c(-c2cc(-c3ccco3)[nH]n2)n[nH]c1=S,7,0.3,5.7%,-3,/,2.3
COC(=O)c1c(NC(=O)CC2Sc3ccc(C(F)(F)F)cc3NC2=O)sc(C)c1C (configuration not stated),-10,-1.7,1.3%,10,-7,0.3
CC1(C)C2CC=C(/C=N/NC(=O)c3ccc(O)cc3)C1C2 (configuration not stated),-10,-0.1,3.1%,-4,5,-0.5
OCc1cccc(-c2csc(C(O)c3ccccc3)n2)c1 (configuration not stated),-5,0.2,2.2%,4,4,-1.0
c1ccc(-c2nc(C3CCCCC3)c3ccccc3n2)cc1,-4,-3.5,1.2%,5,6,-0.4
CCc1nc2ccc(C(=O)N3CCN(c4ccccc4F)CC3)cc2nc1CC,-12,2.4,-0.6%&1.0%,5,2,1.7&0.3

Three compounds already listed, ordered by SMILES length, low to high:
Molecule,D2 PAM,D2 ag,PINK1 expr mod,Six1-Eya2 inh,CtBP-E1A blk,TRPML1 ag
CCCCCCCn1c(=N)n(CC(O)c2ccco2)c2ccccc21 (configuration not stated),-2,-6.6,-0.8%,-6,3,0.0
COc1ccccc1-n1c(-c2cc(-c3ccco3)[nH]n2)n[nH]c1=S,7,0.3,5.7%,-3,/,2.3
CCOC(=O)CCCCC(=O)c1[nH]c(=O)[nH]c1CSc1nc(C)cc(C)n1,-15,-1.9,-1.0%,-6,-2,-0.6

(listing goes on)
Molecule,D2 PAM,D2 ag,PINK1 expr mod,Six1-Eya2 inh,CtBP-E1A blk,TRPML1 ag
O=C(O)C1CCCCC1C(=O)NCCc1ccccc1 (configuration not stated),-11,-1.5,?,3,-4,0.4
Cc1ccc(CNC(=O)C2CCN(S(=O)(=O)c3cnc[nH]3)CC2)cc1,-12,-1.2,/,5,2,0.7
CC(=O)N1CCN(Cc2nc3cc(NC(=O)c4ccc(F)cc4)ccc3n2C)CC1,-15,-2.5,5.3%,-6,-2,0.2
O=C(Nc1ccccc1)c1cc(C2CCCN(C(=O)CCc3ccccc3)C2)on1 (configuration not stated),-8,-6.8,1.2%,-9,1,-0.8
Cc1cc(=O)n2c3ccccc3n(CC(O)CN3CCN(Cc4ccccc4)CC3)c2c1C#N (configuration not stated),-27,5.3,-0.4%,0,/,-1.1
CCOc1cccc(Nc2ccc([N+](=O)[O-])cn2)c1,-18,-0.1,1.6%,0,0,0.9
CC(=O)Nc1cccc(NC(=O)CSc2nnnn2C(C)C)c1,-1,-3.7,1.0%,-3,3,-0.9
Cc1cccc(C)c1NC(=S)N/N=C1\CC2CC=CC12 (configuration not stated),11,-2.5,-0.1%,0,5,0.6
COc1ccc(CC(=O)N2CCCC2)c(OC)c1,6,-1.0,-0.7%,-4,0,-0.3
COc1cccc(-n2c(C)nc3c(cnn3-c3ccc(Cl)cc3)c2=O)c1,-2,-0.2,1.8%,1,-3,-0.8
CN(C)c1ccc(C(C(=O)NCC2CCCO2)N(Cc2ccccc2)C(=O)c2snc(C(N)=O)c2N)cc1 (configuration not stated),9,?,1.4%,-12,-15,-0.8
Cc1ccc2cc(CN(C)S(C)(=O)=O)c(=O)[nH]c2c1,-5,-0.8,1.6%,3,7,0.7
O=c1c2cn[nH]c2[nH]c(=S)n1-c1ccccc1Cl,-16,-6.5,-1.7%,4,-18,0.2
CC(=O)Nc1cccc(NC(=O)Cc2cccs2)c1,0,2.2,0.8%,-3,/,-0.5
CCCCOc1ccc(C(=O)Nc2cccc(C)n2)cc1,-2,2.0,7.0%,13,5,0.8
CCOC(=O)c1c(C)[nH]c(C(=O)OCC(O)=C(C#N)c2nc3ccccc3[nH]2)c1C,-4,0.1,8.0%,-10,-12,0.7
CCS(=O)(=O)N1Cc2ccccc2CC1C(=O)N(C)Cc1ccc(OC)cc1OC (configuration not stated),-3,1.2,-0.6%,-16,-2,1.8
CCOC(=O)N1CCN(C(=O)C2CCN(C(=O)c3cc4sccc4n3CC)CC2)CC1,3,-4.0,8.6%,4,4,0.0
COCCOc1cc(NC(=O)CS(=O)(=O)CC(=O)N(C)C)c(Cl)cc1Cl,-2,-1.5,-1.9%,4,4,0.4
CCOC(=O)N1CCN(C(=O)CN(C2CCCCC2)S(=O)(=O)c2ccc(C)cc2)CC1,-1,-1.8,0.1%,11,-11,-1.4
CCOc1cnn(Cc2ccccc2)c(=O)c1SCc1ccccc1,-15,-1.9,3.1%,17,-4,1.6
CSc1nc2c(c(=O)[nH]1)CCCC2,-13,-3.1,1.4%,-3,4,-0.2
CCCCn1c(N)c(N(CC(C)C)C(=O)c2cccc(S(=O)(=O)N(C)c3ccccc3)c2)c(=O)[nH]c1=O,5,-1.8,10%,-1,3,-0.4
Cc1cc(Cl)ccc1NNC(N)=S,-7,2.2,0.6%,-3,-4,1.4
Cc1c(Nc2nc3ccccc3nc2N2CCN(c3ccccc3)CC2)c(=O)n(-c2ccccc2)n1C,-1,-1.7,8.9%,1,5,2.8
CCN=c1scc(-c2ccco2)n1/N=C/c1ccc(OC)c(O)c1,-6,6.8,0.1%,?,-23,-0.3
CCOC(=O)C1(Cc2cccc(OC)c2)CCN(CC=C(C)C)CC1,-10,4.7,-0.3%,0,/,1.6
CC1(C)Cc2c(sc3nc(C4CCCCC4)n(N)c(=O)c23)CO1,-5,-3.6,7.5%,16,2,0.5
O=C1C(SC(F)(F)C(F)F)=C(C(F)(F)F)OC2C3C=CC(C3)C12 (configuration not stated),16,-0.6,1.0%,1,0,-0.7
CCC1(c2ccc(F)cc2)NC(=O)NC1=O (configuration not stated),8,-0.8,0.3%,2,0,0.3

Look-ups from the results shown:
Reading of Cc1cc(C)n(CCN(C)c2nc3nonc3nc2NC2CC2)n1 in PINK1 expr mod: 0.1%
Reading of Cc1cc(Cl)ccc1NNC(N)=S in TRPML1 ag: 1.4
Reading of CCS(=O)(=O)N1Cc2ccccc2CC1C(=O)N(C)Cc1ccc(OC)cc1OC (configuration not stated) in Six1-Eya2 inh: -16

New compounds follow:
Molecule,D2 PAM,D2 ag,PINK1 expr mod,Six1-Eya2 inh,CtBP-E1A blk,TRPML1 ag
Cc1nn(-c2ccccc2)c2sc(-c3nnc(SCC(=O)O)o3)cc12,-7,1.1,/,-27,2,0.0
CCc1nc2cc(Cl)c(Cl)cc2[nH]1,-6,-2.0,0.6%[38.3 µM],0,8,0.6
Cc1ccc(N=C2NC(=O)/C(=C\c3ccco3)S2)cc1,-28,-2.1,4.4%,-23,0,2.3
COc1ccccc1N(CC(=O)NC(C)(C)C)S(=O)(=O)c1cccs1,-11,-7.0,1.0%,7,-9,-0.5
O=C(CCNc1n[nH]c(=O)[nH]c1=O)N/N=C/c1ccc(Cl)cc1,-5,0.3,1.8%,2,0,-0.3
O=C(NN=Cc1cccc2ccccc12)C1CC1,-3,0.8,-3.6%,-7,-2,0.2
COc1ccccc1NC(=O)CSc1nnc(C2CCCCC2)n1C,-12,-2.9,-1.7%,0,0,0.3
CCOP(=O)(c1ccccc1)c1nc(-c2ccccc2C)oc1N1CCCCC1 (configuration not stated),1,-1.1,-1.5%,-9,-3,-0.3
Cc1ccc(C)c(NC(=O)CSc2nccn2Cc2ccco2)c1,7,6.4,0.2%,-1,0,-0.7
O=C(CSc1nnc(NC(=O)c2c(F)cccc2F)s1)NCc1ccccc1,-2,-4.0,0.3%,14,11,0.7
Cc1cccc(S(=O)(=O)NC(=O)C2(C)CCN2C(=O)C2(c3ccc(Cl)cc3)CC2)c1 (configuration not stated),-2,1.0,-0.1%,-2,1,-0.6
COc1cc(OC)c(C(=O)CCC(=O)O)cc1OC,-11,-4.2,9.4%,9,-5,0.4
CN(c1nc(-c2ccc(Br)cc2)cs1)C1CCS(=O)(=O)C1 (configuration not stated),-6,-0.9,3.0%,-8,-2,-0.9
CC1CCN(Cc2nnnn2CCCC(=O)NCCN2CCOCC2)CC1,-14,-7.7,1.8%,10,12,-0.1
